Screening results deposited in PubChem BioAssay by several laboratories.
YopH PTP inh: YopH tyrosine phosphatase inhibitors, primary screen, biochemical, fluorescence Ex485/Em525 | AID 898, 2007 | inhibition, %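 (about 10 µM by stock and volumes)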 | 140,000 compounds, 0.16% hits | YopH tyrosine phosphatase [Yersinia enterocolitica];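 active = inhibition of 50% or more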;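 also: controls were vehicle for no effect and minimum signal wells for full effect; inactives centre near -20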
Arbovirus inh: antivirals against arbovirus infection, primary screen, cell-based, full library, 10K replicate subset. arbovirus infection cell-based antiviral screen. inhibition, % at 10 µM. 200,000 compounds, 0.37% hits. AID 1251, 2008;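 active = inhibition from about 30%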;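 also: bluetongue infection of BSR cells; cell survival read as ATP light after 72 h; 0% = infected wells without compound and 100% = uninfected wells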
RecA intein inh: Mtb RecA intein splicing inhibitors, primary screen, biochemical, fluorescence, HTS. AID 2221, 2009. inhibition, %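 (about 9 µM by stock and volumes)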. cell-free RecA intein splicing. 290,000 compounds, 0.75% hits; in the data active = inhibition above about 30%;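 also: 0% = vehicle wells and 100% = reference inhibitor control wells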
Target sequence (P9WHJ3 whole entry, looked up): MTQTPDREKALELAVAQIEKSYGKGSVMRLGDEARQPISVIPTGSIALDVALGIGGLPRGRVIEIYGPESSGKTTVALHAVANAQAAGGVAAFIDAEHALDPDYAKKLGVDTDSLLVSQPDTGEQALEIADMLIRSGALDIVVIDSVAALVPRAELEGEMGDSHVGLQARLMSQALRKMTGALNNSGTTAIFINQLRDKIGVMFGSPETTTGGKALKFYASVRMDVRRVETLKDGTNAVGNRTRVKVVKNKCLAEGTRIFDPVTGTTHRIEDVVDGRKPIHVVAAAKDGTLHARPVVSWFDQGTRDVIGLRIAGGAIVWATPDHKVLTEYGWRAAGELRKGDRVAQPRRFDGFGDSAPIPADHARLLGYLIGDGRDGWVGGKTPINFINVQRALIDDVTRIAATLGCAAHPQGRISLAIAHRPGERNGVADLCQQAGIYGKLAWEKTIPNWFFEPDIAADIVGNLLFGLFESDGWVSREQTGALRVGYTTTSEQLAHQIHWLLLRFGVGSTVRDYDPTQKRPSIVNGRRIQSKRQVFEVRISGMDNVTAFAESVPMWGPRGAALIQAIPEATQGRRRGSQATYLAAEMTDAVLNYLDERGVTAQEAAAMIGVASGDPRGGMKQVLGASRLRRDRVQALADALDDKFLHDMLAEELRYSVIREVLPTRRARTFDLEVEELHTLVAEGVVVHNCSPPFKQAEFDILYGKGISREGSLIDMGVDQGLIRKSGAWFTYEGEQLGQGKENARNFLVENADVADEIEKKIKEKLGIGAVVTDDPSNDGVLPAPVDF
Mtb bLac sens: beta-lactam sensitization of Mtb H37Rv, H37Rv; 330,000 compounds, 0.27% hits; AID 434955, 2010; M. tuberculosis H37Rv growth with meropenem, percent inhibition; hits of this screen are not shown here; inhibition, % at 25 µM;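 active = about 74% or more and at least 40 points above the plate without the antibiotic, then above 30% in a dose series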;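 also: growth measured after seven days incubation then overnight dye step; 0% = bacteria only wells and 100% = bacteria with antibiotic; twin plates without the antibiotic show which effects depend on it; some results filed as inactive read as strong as hits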
Mtb growth: M. tuberculosis H37Rv growth inhibitors, H37Rv strain (AID 1626); M. tuberculosis H37Rv growth inhibition; higher % means a stronger effect; one-dose inhibition, % at 10 µM; IC50 in µM for titrated hits; 220,000 compounds, 0.95% hits;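 active = confirmed in a dose series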;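 also: bacteria incubated seven days before Alamar blue readout; 0% = bacteria only wells and 100% = bacteria with antibiotic wells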
Arbovirus inh repeat: also measured in Arbovirus inh; calls as there; inhibition, %; measured here: 10K subset replicate screen; many hits read low in the repeat;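 first of two repeat runs on a subset; 0% = infected and 100% = uninfected wells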
* hit, by the source's call; / = no result given. A portion of the library; count on the stated rates, not on these rows.

SMILES | YopH PTP inh | Arbovirus inh | RecA intein inh | Mtb bLac sens | Mtb growth | others
CCN(CC(=O)Nc1cccc(OC)c1)CC(=O)Nc1ccc(Br)c(C)c1 | / | / | 14 | 74 | /
CCC(Oc1ccccc1)C(=O)Nc1ccc(C)c(S(=O)(=O)N2CCOCC2)c1 (stereo unspecified) | / | / | 1.2 | 2 | /
COc1cccc(N2CC(=O)N(NC(=O)CSc3nc(C)cc(C)c3C#N)CC2=O)c1 | -32 | 3 | 0.6 | 2 | 2%
Cn1c(=O)n(C)c2cc(C(=O)O)ccc21 | 2 | 6 | -1.1 | 0 | /
O=C(Nc1ccccc1N1CCCCC1)c1ccc(OC(F)F)cc1 | / | / | 8.8 | 59 | /
CC(=O)Nc1ccc(SCc2c(C)noc2C)cc1 | / | / | -2.8 | 1 | /
N#Cc1ccc(C(=O)Nc2nc3ccccc3[nH]2)cc1 | / | / | -7.1 | 5 | /
CN(C)S(=O)(=O)n1cc(/C=C(\NC(=O)c2ccccc2Cl)C(=O)NCCCN2CCOCC2)c2ccccc21 | / | / | -1.3 | 4 | /
O=C1C(=O)N(c2cccc(Cl)c2)C(c2ccccc2[N+](=O)[O-])/C1=C(\O)c1ccccc1 (stereo unspecified) | -27 | 14 | -2.2 | -4 | 1%
O=C1C[C@@H](c2ccc(O)cc2)Oc2cc(O)cc(O)c21 | -23 | 2 | -1.3 | -4 | -9%
CC(=O)c1ccc(S(=O)(=O)NCc2ccc(C(=O)NCC(c3ccccc3)N(C)C)cc2)cc1 (stereo unspecified) | / | / | 2.1 | -4 | /
CCCNS(=O)(=O)c1ccc(OCC(=O)N2CCOCC2)cc1 | -16 | 4 | -3.2 | 1 | -8%
COc1ccc(NC(=O)CNC(=O)Cc2ccccc2)cc1OC | / | / | -1.4 | -9 | /
CCOc1ccc(S(=O)(=O)NCCC(=O)OCC(=O)Nc2cc(C)on2)cc1 | / | / | -0.5 | -3 | 1%
Cc1oc(-c2ccc(Cl)cc2)nc1CN1CCC(C(=O)NCCCN2CCCC(C)C2)CC1 (stereo unspecified) | / | / | -0.4 | -2 | /
O=C(NC1CCCCC1)c1nc2c(nnn2Cc2ccccc2Cl)c(=O)[nH]1 | -10 | -11 | 0.3 | 40 | 0%
O=C(CSc1nc2c(cnn2-c2ccc(F)cc2)c(=O)[nH]1)N1CCOCC1 | -39 | 13 | / | -2 | -12% | Arbovirus inh repeat=-1
Cc1cnc(C(=O)NNC(=O)c2ccc(Br)cc2)cn1 | / | / | 0.5 | 74 | /
CN(C)S(=O)(=O)c1cccc(NC(=O)COC(=O)c2cc(-c3cccc(Br)c3)nc3ccccc23)c1 | -12 | -2 | 2.0 | 13 | 8%
CSc1nc(C)cc(Oc2ccc(=O)[nH]n2)n1 | / | -2 | -1.0 | -3 | -7%
O=C(NCc1nc(-c2ccccc2)cs1)c1ccccc1 | / | -6 | 0.7 | 0 | 4%
COc1ccc(NCc2nnc(SCC(=O)NNC(=O)c3ccc(C)cc3)n2C)cc1 | / | -4 | 1.8 | -6 | -19%
O=C(Cc1cccc2ccccc12)NN1C(=O)CSC1=S | / | 0 | 2.1 | 3 | -9%
Cn1nc(CC(=O)Nc2ccc(N3CCN(C(=O)OC(C)(C)C)CC3)cc2)c2ccccc2c1=O | -4 | -19 | 1.5 | 5 | /
Cc1noc(C)c1C(=O)N1CCN(CCc2ccccc2)CC1 | -22 | 8 | 1.4 | 0 | -7%
Further records
SMILES | YopH PTP inh | Arbovirus inh | RecA intein inh | Mtb bLac sens | Mtb growth | others
Cc1cccc(CN2CCC(C(=O)Nc3ccc(-n4nc(C)cc4C)cc3)CC2)n1 | / | / | 2.4 | -9 | /
Cc1nc2c3c(sc2c(=O)[nH]1)NC(=O)CC3c1ccccc1Cl (stereo unspecified) | / | / | 0.8 | 8 | 7%
N#CCSc1nccc(/C=C/c2ccccc2)n1 | / | 10 | 2.7 | 2 | -2%
N#Cc1c(N)sc(=S)c2c1CCCCC2 | -4 | 1 | 10 | -4 | -14%
CC(C)(C)C(=O)Nc1sc2c(c1C#N)CCN(Cc1ccccc1)C2 | / | / | -60 | 0 | /
CCOc1cc(C(=O)Nc2ccccc2N2CCOCC2)ccc1OCC(=O)N1CCCCC1 | / | 4 | -2.0 | 2 | 8%
COc1ccc(S(=O)(=O)N2CCN=C2SCc2cccnc2)cc1 | / | 9 | -1.2 | 4 | -1%
COc1ccc(CCNC(=O)COc2ccc(S(=O)(=O)N3CCCC3)cc2)cc1 | / | 2 | 3.8 | 2 | 1%
CCC(C)(C(=O)NC1CCCC1)N(Cc1cccs1)C(=O)c1ccc2c(c1)OCO2 (stereo unspecified) | -14 | -7 | 0.9 | 7 | -3%
CN(C)C(=O)Cn1cnc2c(cnn2-c2ccccc2Cl)c1=O | -43 | -2 | 1.2 | -11 | 2%
O=C(CSc1nccn1-c1cccc(Cl)c1)Nc1ccc2c(c1)OCCO2 | -45 | 8 | 3.5 | 0 | 7% | Arbovirus inh repeat=0
CC(=O)NCCOc1nc(N(C)C)nc(N2CCCCC2)n1 | / | -1 | -1.2 | -3 | -6%
CCN(CC)S(=O)(=O)c1ccc(S(=O)(=O)N(CC(=O)Nc2ccccc2)CC2CCCO2)cc1 (stereo unspecified) | -11 | / | 2.4 | -4 | -2%
O=C1CC(c2ccccc2)CC(O)=C1C=NCCN1CCN(C(=O)Nc2ccccc2)CC1 (stereo unspecified) | -54 | 2 | 2.2 | -2 | 5%
COC(=O)Nc1ncc(CN2CCC(c3ccccc3)CC2)s1 | 28 | -5 | 0.6 | 0 | -11%
COc1ccc(C)cc1NC(=O)NCc1ccc(F)cc1 | / | -3 | -1.4 | -4 | 9%
CC(C)(C)c1cc([N+](=O)[O-])cc(C(C)(C)C)c1O | / | -4 | 0.9 | -13 | /
O=C(Nc1ccccc1F)NC1CCN(Cc2nnnn2Cc2ccc(F)cc2)CC1 | -29 | 6 | 1.2 | -16 | -7%
COc1cc(CCC(=O)NCc2ccc(S(N)(=O)=O)cc2)cc(OC)c1OC | / | / | -0.1 | -3 | /
O=C(NCCc1ccccc1)C1CCN(C(=O)c2sccc2-n2cccc2)CC1 | -11 | 5 | 3.1 | -2 | 3% | Arbovirus inh repeat=-1
COc1ccc(OC)c(S(=O)(=O)N(C)CC(=O)Nc2ccc3c(c2)OCCO3)c1 | -29 | 13 | -0.9 | -3 | -2%
Nc1nc(C23CC4CCC(CC(C4)C2)C3)cs1 | -16 | 3 | 5.0 | -4 | 5%
NC(=O)C1CCN(C(=O)C2CCC(=O)N(C3CCCCCC3)C2)CC1 (stereo unspecified) | / | / | 0.8 | -12 | /
C/C(=N\NC(=O)c1sccc1C)c1ccncc1 | / | / | -0.4 | 3 | /
COc1ccccc1CCC(=O)OCC(=O)N1CCN(S(=O)(=O)c2ccc(C)cc2C)CC1 | / | / | -1.1 | -3 | /

For reference, 17 of the compounds above:
SMILES | YopH PTP inh | Arbovirus inh | RecA intein inh | Mtb bLac sens | Mtb growth | others
Cc1cccc(CN2CCC(C(=O)Nc3ccc(-n4nc(C)cc4C)cc3)CC2)n1 | / | / | 2.4 | -9 | /
Cc1nc2c3c(sc2c(=O)[nH]1)NC(=O)CC3c1ccccc1Cl (stereo unspecified) | / | / | 0.8 | 8 | 7%
N#CCSc1nccc(/C=C/c2ccccc2)n1 | / | 10 | 2.7 | 2 | -2%
N#Cc1c(N)sc(=S)c2c1CCCCC2 | -4 | 1 | 10 | -4 | -14%
CC(C)(C)C(=O)Nc1sc2c(c1C#N)CCN(Cc1ccccc1)C2 | / | / | -60 | 0 | /
CCOc1cc(C(=O)Nc2ccccc2N2CCOCC2)ccc1OCC(=O)N1CCCCC1 | / | 4 | -2.0 | 2 | 8%
COc1ccc(S(=O)(=O)N2CCN=C2SCc2cccnc2)cc1 | / | 9 | -1.2 | 4 | -1%
COc1ccc(CCNC(=O)COc2ccc(S(=O)(=O)N3CCCC3)cc2)cc1 | / | 2 | 3.8 | 2 | 1%
CCC(C)(C(=O)NC1CCCC1)N(Cc1cccs1)C(=O)c1ccc2c(c1)OCO2 (stereo unspecified) | -14 | -7 | 0.9 | 7 | -3%
CN(C)C(=O)Cn1cnc2c(cnn2-c2ccccc2Cl)c1=O | -43 | -2 | 1.2 | -11 | 2%
O=C(CSc1nccn1-c1cccc(Cl)c1)Nc1ccc2c(c1)OCCO2 | -45 | 8 | 3.5 | 0 | 7% | Arbovirus inh repeat=0
CC(=O)NCCOc1nc(N(C)C)nc(N2CCCCC2)n1 | / | -1 | -1.2 | -3 | -6%
CCN(CC)S(=O)(=O)c1ccc(S(=O)(=O)N(CC(=O)Nc2ccccc2)CC2CCCO2)cc1 (stereo unspecified) | -11 | / | 2.4 | -4 | -2%
O=C1CC(c2ccccc2)CC(O)=C1C=NCCN1CCN(C(=O)Nc2ccccc2)CC1 (stereo unspecified) | -54 | 2 | 2.2 | -2 | 5%
COC(=O)Nc1ncc(CN2CCC(c3ccccc3)CC2)s1 | 28 | -5 | 0.6 | 0 | -11%
COc1ccc(C)cc1NC(=O)NCc1ccc(F)cc1 | / | -3 | -1.4 | -4 | 9%
CC(C)(C)c1cc([N+](=O)[O-])cc(C(C)(C)C)c1O | / | -4 | 0.9 | -13 | /
